# TRPML1 ag: human mucolipin-1 channel agonism. 410,000 tested, 0.12% active. TRPML1-expressing cells, Ca2+ dye fluorescence, FDSS; host cell line not named in the record; reference of the full effect not given here. Q9GZU1. activation, % (concentration not given with the values); in the data active = activation above about 50%; inconclusive = about 30% to 50%; inactive = below about 30%; further: 0% is about no effect; the text of the record puts the active cut at 80%
# Target sequence (Q9GZU1 whole entry, looked up): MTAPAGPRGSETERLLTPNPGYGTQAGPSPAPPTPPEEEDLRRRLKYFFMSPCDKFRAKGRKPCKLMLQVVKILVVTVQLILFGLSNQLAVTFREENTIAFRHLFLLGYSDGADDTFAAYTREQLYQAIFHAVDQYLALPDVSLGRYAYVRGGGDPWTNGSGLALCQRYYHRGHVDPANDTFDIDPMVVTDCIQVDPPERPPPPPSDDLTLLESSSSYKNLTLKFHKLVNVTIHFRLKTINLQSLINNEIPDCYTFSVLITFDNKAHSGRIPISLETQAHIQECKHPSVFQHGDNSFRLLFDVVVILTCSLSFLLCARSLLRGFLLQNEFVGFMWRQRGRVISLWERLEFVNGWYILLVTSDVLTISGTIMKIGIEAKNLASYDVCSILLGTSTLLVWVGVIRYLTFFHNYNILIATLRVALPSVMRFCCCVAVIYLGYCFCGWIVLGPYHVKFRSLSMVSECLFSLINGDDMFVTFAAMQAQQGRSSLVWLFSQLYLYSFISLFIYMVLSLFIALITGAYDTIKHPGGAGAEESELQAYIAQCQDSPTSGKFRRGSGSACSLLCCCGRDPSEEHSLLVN
#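 Tetracycline-induced TRPML1-DL cells are seeded and incubated overnight before loading with a no-wash Ca2+ dye and quencher. Agonist activity is taken from the 110 s fluorescence read following compound pin-transfer on an FDSS, before EC80 54-4 challenge.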
# PINK1 expr mod: modulators of PINK1 expression | PINK1 immunofluorescence, high-content cytometry, 24 h | Potency, µM (highest dose often 76.6 µM), for the others: at the top dose activation (PINK1 increase), usual class: activators | 410,000 tested, 0.2% active | AID 624263; active = well fitted activation curve with a large enough effect; inconclusive = small, poorly fitted or top-dose-only effect; inactive = flat fitted curve, though single readings scatter; cell line not stated here;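 further: potency means the concentration at half of the fitted maximal effect; % of control where 0% means no effect; nearly all actives have a fitted effect of over 65% in size; a mitochondrial uncoupler was the plate control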
#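 Decision-based qHTS: stable cells, 24 h exposure to five compound concentrations, CCCP as control. Fixed cells stained for PINK1 plus nuclear, mitochondrial and cell markers, cytometer read.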
# The depositor's hits bear a star.
molecule	TRPML1 ag	PINK1 expr mod
O=C1CCCc2cc(S(=O)(=O)N3CCCC(C(=O)NCc4ccccc4)C3)ccc2N1 (stereo not drawn)	1.3	1.3%
COc1ccc(CNC(=O)Cc2c(C)c3cc4c(C)coc4cc3oc2=O)cc1OC	-0.7	-1.3%
CCc1ccc(Oc2c(C(F)(F)F)oc3c(CN4CCCC(C)C4)c(O)ccc3c2=O)cc1 (stereo not drawn)	0.6	0.1%
CCOC(=O)C1CCN(CCC(=O)Nc2ccc(OC)cc2)CC1	0.7	1.6%
COc1cc(OC)cc(-n2c(=O)c3sccc3n(Cc3cc(=O)n4c(C)cccc4n3)c2=O)c1	0.7	1.1%
CCc1ccc(-n2c(=O)c3c4c(sc3n(CC(=O)c3ccc(F)cc3)c2=O)CCC4)cc1	0.7	3.2%
CCc1ccc(-n2c(SCc3ccccc3F)nc3[nH]ncc3c2=O)cc1	1.2	-0.5%
Cc1cccc(OCC(=O)NCCc2nc3ccccc3[nH]2)c1C	3.3	-0.4%
Cc1ccc(C(=O)Nc2ccc(C(=O)OCc3cc(=O)n4c5c(sc4n3)CCCC5)cc2)cc1	1.6	0.3%
Cn1c(=O)c2cc(C(=O)NCCCN3CCN(c4ccccc4F)CC3)sc2c2ccccc21	-0.9	0.3%
COc1ccc(-n2c(=O)c3sc4ccccc4c3n(CC(=O)NC3CCCCC3)c2=O)cc1	-0.7	2.6%
Cn1c(=O)n(C/C=C/c2ccccc2)c(=O)c2c1nc1n2CCN1c1ccc(F)cc1	-0.9	0.0%
CC(C)c1ccc(NC(=O)Cn2c(=O)n(CCc3ccccc3)c(=O)c3ccccc32)cc1	0.4	1.9%
COc1ccc(CN2CCCN(CC(=O)Nc3ccc4c(c3)OCCO4)S2(=O)=O)cc1	1.2	0.5%
CSc1ccc(C2c3c(oc4cc(C)cc(C)c4c3=O)C(=O)N2Cc2ccco2)cc1 (stereo not drawn)	1.5	2.2%
COc1c(Cl)cc(Cl)cc1CNCCSc1nnnn1C	0.6	-1.4%
CCOc1ccc(N(C(=O)CC(C)C)S(=O)(=O)c2ccc3c(c2)oc(=O)n3C)cc1	0.0	4.0%
COC(=O)c1ccccc1NC(=O)c1ccc2c(c1)CCN2S(C)(=O)=O	0.2	-0.3%
Cc1nn(C)c(C)c1S(=O)(=O)N(CC(=O)N1CCN(c2ccccc2)CC1)c1ccc(C(C)C)cc1	-0.4	-0.1%
COc1cc(NC(=O)c2sc3nc4n(c(=O)c3c2C)CCCCC4)cc(OC)c1OC	1.8	1.5%
CCOC(=O)c1c(C)oc2nc(C)nc(NCc3cccc(OC)c3)c12	0.6	-0.3%
Clc1nc(NCc2ccco2)c2ccccc2n1	-0.1	4.2%
COc1ccccc1CCNC(=O)Cc1c(C)c2ccc(O)cc2oc1=O	0.6	-0.3%
CCc1ccc(C2=C(C)C(N3CCC(C(=O)Nc4ccc(F)cc4)CC3)=NS2(=O)=O)cc1	1.6	9.2%
CC(C)C1(C)NC(c2ccc3c(c2)OCO3)=CC(c2ccccc2O)N1 (stereo not drawn)	-0.7	0.2%
COc1ccc(NC(=O)c2ccco2)cc1NC(=O)C(C)Oc1ccc(Cl)cc1Cl (stereo not drawn)	1.3	11%
COc1ccc(-c2nc3ccccc3s2)cc1NC(=O)c1ccc(C#N)cc1F	0.6	-0.4%
COc1ccc2c(c1)CCc1c(C(=O)Nc3cnn(Cc4ccc(Cl)cc4Cl)c3)noc1-2	2.0	0.4%
COc1ccc(N2CCN(Cc3nnc(-c4cccc(Br)c4)o3)CC2)cc1	-0.5	-1.5%
Cc1ccc(CSc2oc(-c3cccs3)nc2S(=O)(=O)c2ccccc2)cc1	-0.9	1.4%

# Next part.
molecule	TRPML1 ag	PINK1 expr mod
CCCCCOC(=O)CSc1nc2sc3c(c2c(=O)n1Cc1ccccc1)CC(C)(CC)OC3 (stereo not drawn)	1.2	-0.2%
COc1ccc(NC(=O)CSC2=Nc3ccccc3C3=NC(CC(=O)NCc4ccc(F)cc4)C(=O)N23)cc1 (stereo not drawn)	-0.4	2.6%
CCN(C(=O)c1cccn(Cc2cccc(Cl)c2)c1=O)c1ccccc1	1.3	-3.9%
CC(=O)c1ccc(NC(=O)c2nc(-c3ccccc3)n(-c3ccccc3)n2)cc1	1.2	1.4%
COC(=O)c1ccc(NS(=O)(=O)c2ccc3[nH]c4c(c3c2)CCCC4)cc1	2.5	15%
CC1=C(c2ccc(F)cc2)S(=O)(=O)N=C1N1CCC(C(=O)NCCc2ccccc2C)CC1	2.5	1.5%
COc1ccc(OC)c(CCNC(=O)CN2C(=O)COc3ccc(S(=O)(=O)N4CCCCCC4)cc32)c1	3.0	-0.7%
Cc1csc2nc(-c3cccc(NC(=O)c4c(F)cccc4F)c3)cn12	1.4	-1.3%
O=C(CCc1ccccc1)NCCc1csc(-c2cccc(F)c2)n1	2.1	2.2%
COc1cccc(OCc2nc3ccccc3n2Cc2ccccc2C)c1	8.1	-0.1%
Cc1ccccc1NC(=O)CS(=O)(=O)c1cccc2nsnc12	1.6	-4.7%
COc1ccc(C2C(=O)N(C3CCC(C)CC3)CC(=O)N2CCc2ccccc2)cc1OC (stereo not drawn)	0.1	3.1%
Cc1ccc(C)c(NS(=O)(=O)c2cc3c(cc2C)n(C)c(=O)c(=O)n3C)c1	2.0	1.8%
Cc1cccc(NC(=O)CSc2cn(CC(=O)N3CCC(C)CC3)c3ccccc23)c1C	0.7	-0.2%
COc1cc(NC(=O)c2ccc(-c3nc(CSc4ccccc4)c(C)o3)cc2)cc(OC)c1	2.5	2.8%
CCOC(=O)c1ccc(NC(=O)c2c(NCc3cccs3)sc3c2CCCCC3)cc1	-0.2	2.5%
CC(=O)Nc1ccccc1OCc1cc(=O)n2c3c(sc2n1)CCCC3	0.1	2.5%
CC(C)(C)C1CCc2onc(C(=O)Nc3sc4c(c3C(N)=O)CCCC4)c2C1 (stereo not drawn)	1.4	0.4%
Cc1ccc(C2=Nc3ccccc3N(CC(=O)Nc3ccccc3C)C(=O)C2)cc1C	-0.2	-0.5%
CCOC(=O)c1c(C)[nH]c(CCC(=O)Nc2ccccc2C(F)(F)F)c1C	2.8	1.7%
COc1cc2c(cc1OC)C(COc1ccc(F)cc1)N(C(=O)C(C)C)CC2 (stereo not drawn)	1.5	-3.4%
CCOC(=O)N1CCC(NC(=O)c2ccc3c(c2)N(Cc2ccc(F)cc2)C(=O)c2ccccc2S3(=O)=O)CC1	3.1	0.2%
COc1ccc(CNC(=O)c2cc(Nc3ccc(C)cc3C)nc3ccccc23)cc1	1.9	3.0%
COc1ccccc1Cc1nc2ccccc2nc1SCC(=O)N1CCCCC1	0.7	-0.3%
C=Cc1ccc(Cn2c(C)c(CNCCc3ccc(OCC)cc3)c(C(=O)O)c2C)cc1	2.3	2.1%
Cc1ccc(-n2c(-c3cccc(C)c3)nc3c(cnn3-c3ccccc3)c2=O)cc1	2.9	3.0%
CCCN1CCN(c2ncnc3sc(C(=O)Nc4ccc(C(C)C)cc4)c(C)c23)CC1	-0.8	2.4%
CCOc1ccc(C2c3c(oc4cc(C)c(C)cc4c3=O)C(=O)N2c2ccccn2)cc1 (stereo not drawn)	0.5	-0.4%
CN(C)S(=O)(=O)c1ccc2c(c1)nnn2CCNC(=O)Nc1ccc(Br)cc1	-0.4	0.8%
COc1ccc(N2CCN(C(CNC(=O)C(=O)NCCCN(C)C)c3cccnc3)CC2)cc1 (stereo not drawn)	0.1	-0.4%

# (listing goes on)
# Below each compound – TRPML1 ag, PINK1 expr mod
Cc1cc(-c2nc3ncccc3o2)ccc1NC(=O)COc1cc(C)c(Cl)c(C)c1
    1.9, -0.2%
CCCN1CCN(CCNC(=O)Nc2cc(OC)cc(OC)c2)CC1
    -0.5, -0.4%
O=C(NCc1cccc(Cl)c1)C1CCN(c2nn3cc(-c4ccc(F)cc4)nc3s2)CC1
    -0.1, -0.9%
COc1ccc(CN(Cc2ccccc2)C(=O)c2ccc(O)cc2)cc1COc1ccc(NC(C)=O)cc1
    1.1, -0.4%
Cc1ccc(N(CC(=O)Nc2ccc(Br)c(C)c2)S(=O)(=O)c2cccs2)cc1
    -0.5, 4.6%
CCc1ccc(N2CC(c3nnc(NC(=O)c4ccco4)s3)CC2=O)cc1 (stereo not drawn)
    -0.5, 0.2%
CCc1ccccc1N1C(=O)N(Cc2ccc(C#N)cc2)c2ccccc2S1(=O)=O
    0.0, 1.2%
CN(C)c1ccc(/C=C/c2ccnc3ccccc23)cc1C=O
    -0.1, 8.9%
Cc1ccc(N2CCN(Cc3nnc(-c4ccccc4F)o3)CC2)c(C)c1
    1.7, -1.3%
COc1ccc(NC(=O)c2cc3c(=O)n(Cc4cccnc4)ccc3nc2C)cc1OC
    -0.6, -1.0%
O=C(NC1CC(=O)N(c2cccc(F)c2)C1)c1ccc(S(=O)(=O)N2CCCC2)cc1 (stereo not drawn)
    0.9, -0.1%
COc1ccc(C(=O)NCC(c2ccc3c(c2)OCO3)N2CCN(c3ccccc3F)CC2)cc1 (stereo not drawn)
    0.9, -0.6%
Cc1ccc(NC(=O)C(Cc2ccccc2)NS(=O)(=O)c2cccs2)cc1Cl (stereo not drawn)
    1.3, 1.8%
COc1ccc(-c2nc(CNC(=O)Nc3ccccc3)c(C)o2)c(OC)c1
    1.9, 0.0%
COc1cc(C(CC(=O)Nc2ccc(F)cc2F)N2Cc3ccccc3C2=O)cc(OC)c1OC (stereo not drawn)
    1.2, -4.9%
COc1ccccc1NC(=O)CSc1cn(CC(=O)N2CCCC2)c2ccccc12
    0.6, -0.6%
CCOc1ccc(NC(=O)NC(CC)Cn2nnc3ccccc3c2=O)cc1 (stereo not drawn)
    -0.7, 0.3%
Cc1ccc(-c2nnc(Nc3cccc(Br)c3)c3ccccc23)cc1S(=O)(=O)N1CCCCC1
    0.1, 0.6%
Cc1ccccc1-c1nc(CN2CCCC(C(=O)NCc3ccc(Cl)cc3)C2)c(C)o1 (stereo not drawn)
    -0.8, 1.5%
Cc1cccc(-n2nc(C)c(C(=O)Nc3cc(C)ccc3C)c2-n2cccc2)c1
    3.2, -1.8%
COc1ccc(-c2nc(CSCC(=O)NCCc3ccc(C)cc3)c(C)o2)cc1OC
    1.9, 0.3%
COc1cc(/C=C/c2cncc(/C=C/c3cc(OC)c(OC)c(OC)c3)c2)cc(OC)c1OC
    0.1, -0.3%
O=C(Nc1cccc(C(F)(F)F)c1)Nc1nnc(N2CCCCCC2)s1
    -0.6, 1.5%
CCOC(=O)c1c(C)oc2nc(C)nc(NCCc3ccc(SC)cc3)c12
    0.1, 1.2%
Cc1c(Cl)cccc1NC(=O)Cn1nnc2sc3c(c2c1=O)CCCC3
    -0.2, -1.1%
Cc1ccc(N2C(=O)CS(=O)(=O)C23C(=O)N(Cc2ccccc2F)c2ccccc23)cc1Cl (stereo not drawn)
    -1.4, 3.1%
Cc1ccc(N2CC(c3nnc(Cc4ccc(F)cc4)o3)CC2=O)cc1 (stereo not drawn)
    1.3, -1.4%
COc1ccc(C)cc1NC(=O)c1noc2c1CSc1ccccc1-2
    0.4, 0.9%
Cc1nn(-c2ccc(F)cc2)c(-n2cccc2)c1C(=O)N1CCN(c2ccccc2)CC1
    1.7, -0.5%
Cc1nc2ccn(Cc3ccco3)c(=O)c2cc1C(=O)NCc1ccc(F)cc1
    2.2, 5.2%

# Single entries from the entries so far.
# TRPML1 ag with CCCN1CCN(CCNC(=O)Nc2cc(OC)cc(OC)c2)CC1 is entered as -0.5
# TRPML1 ag with COc1ccc(NC(=O)c2cc3c(=O)n(Cc4cccnc4)ccc3nc2C)cc1OC is entered as -0.6
# TRPML1 ag with Cc1ccc(-c2nnc(Nc3cccc(Br)c3)c3ccccc23)cc1S(=O)(=O)N1CCCCC1 is entered as 0.1
# PINK1 expr mod with COc1ccc(C)cc1NC(=O)c1noc2c1CSc1ccccc1-2 is entered as 0.9%

# New compounds follow:
# Below each compound – TRPML1 ag, PINK1 expr mod
CC(=O)c1ccc(N2CCN(c3ccc4cc(S(=O)(=O)N5CCCCC5)ccc4n3)CC2)cc1
    1.8, 5.8%
Cc1ccc(Cc2nc3ccccc3nc2SCC(=O)Nc2ccc3c(c2)OCO3)cc1
    1.9, 5.5%
COc1cccc(CNC(=O)CCn2nc(C)c3c(C)n(-c4ccccc4)nc3c2=O)c1
    -1.2, -0.9%
COc1ccc(N2CCN(c3nc4ccccc4n4c(C)nnc34)CC2)cc1
    -0.3, -0.5%
O=C(NC1CCCCCC1)c1cc2c(Cl)nc3ccccc3c2s1
    -0.5, 7.5%
CCc1cccc(C)c1NC(=O)NC1COc2ccccc2C1 (stereo not drawn)
    0.5, -0.4%

# Profiles, looked up by structure.
# COc1cccc(CNC(=O)CCn2nc(C)c3c(C)n(-c4ccccc4)nc3c2=O)c1 is listed as TRPML1 ag: -1.2; PINK1 expr mod: -0.9%
# CC(=O)c1ccc(N2CCN(c3ccc4cc(S(=O)(=O)N5CCCCC5)ccc4n3)CC2)cc1 is listed as TRPML1 ag: 1.8; PINK1 expr mod: 5.8%
# COc1ccc(N2CCN(c3nc4ccccc4n4c(C)nnc34)CC2)cc1 is listed as TRPML1 ag: -0.3; PINK1 expr mod: -0.5%

# Compound activity as filed in PubChem BioAssay.

# Not all compounds are listed; count on the stated rates, not on these rows.
